# Compound activity as filed in PubChem.
# Vaccinia Venus – qHTS for Stage-Specific Inhibitors of Vaccinia Orthopoxvirus: Venus Reporter Primary qHTS; Vaccinia virus Venus reporter expression, fluorescence; Potency, µM (doses to about 36.5 µM), for the others: at the highest dose activity change, negative = inhibition, usual class: inhibitors; 0.46% of 330,000 active; AID 720580, 2013; active means well fitted inhibition curve with a large enough effect; inconclusive means small, poorly fitted or top-dose-only effect; inactive means no such curve, though single readings can be large or run the other way; tested in A549 cells; further: nearly all actives have a fitted effect of over 30% in size; inactives centre near -10
# Vaccinia mCherry – qHTS for Stage-Specific Inhibitors of Vaccinia Orthopoxvirus: mCherry Reporter Primary qHTS. Vaccinia virus mCherry reporter infection, fluorescence; about a quarter of the inactives have no number. Potency, µM (titrated, usually from 36.5 µM), inactives show top-dose activity change, negative = inhibition, actives largely listed as inhibitors. 0.63% of 310,000 active. AID 720579, 2013; active = well fitted inhibition curve with a large enough effect; inconclusive = small, poorly fitted or top-dose-only effect; inactive = no such curve, though single readings can be large or run the other way; tested in A549 cells; further: nearly all actives have a fitted effect of over 35% in size; inactives centre near -10
# Starred values were filed as active, the others as inactive; i = inactive; ? = inconclusive; . = no result given; & = joins results of further samples; ! = not confirmed by another sample; [ ] = remark or other dose. On the % scale 0 is the no-effect control and ±100 the full control effect; potency means the concentration at half of the fitted maximal effect.
compound	Vaccinia Venus	Vaccinia mCherry
Cc1cccc(OCC(=O)NCC(=O)N/N=C/c2ccccc2)c1	-10%	-25%
COc1cccc(CC(=O)N2CCN(Cc3cccc(Cl)c3)CC2)c1	-3%	-13%
Cc1cc(S(=O)(=O)N2CCCC2)ccc1OCC(=O)N1CCCCC1	-4%	-4%
CCC(CO)NC(=O)c1cccc(S(=O)(=O)N2c3ccccc3CC2C)c1 (stereo not given)	-12%	.
CCOC(=O)C1(c2ccccc2)CCN(CC(=O)Nc2cccc3ccccc23)CC1	-2%	-27%
CCCCCN1C(C(=O)c2ccccc2)=C(NC(C)=O)c2ccccc2S1(=O)=O	5%	-8%
O=c1ncn(-c2cccc(Cl)c2)c2ccccc12	-5%	i
COc1ccc(C(C#N)=C2C=CC(=NO)C(C)=C2Cl)cc1	-3%	-17%

# The list continues.
compound	Vaccinia Venus	Vaccinia mCherry
COc1cccc(CNC(=O)CCNS(=O)(=O)c2cccc3nonc23)c1	-4%	i
CCCn1nc(C(=O)OCC(=O)Nc2ccc(C)cc2)c2ccccc2c1=O	3%	-15%
[O-][n+]1nc2ccccc2c2ccccc21	-1%	0%
COc1cc(NC(=O)NCC2CCN(Cc3ccc(C)cc3)CC2)cc(OC)c1OC	-12%&-5%	-4%&-7%
Cc1ccc(-c2nn(-c3ccccc3)cc2C(=O)NCCCN2CCOCC2)cc1	-24%	-18%
Clc1ccc(-n2cccc2CN2CCOc3ccc(CN4CCOCC4)cc3C2)nc1	-14%	i
C/C(=N/NC(=O)c1ccc2c(c1)OCO2)c1cccc(NC(=O)C(C)(C)C)c1	-13%	-17%
CCOC(=O)n1c(SCC(=O)N(CC)CC)nc2ccccc21	?	.

# More entries.
compound	Vaccinia Venus	Vaccinia mCherry
CC(C)c1ccc(N(CC(=O)O)S(=O)(=O)c2ccc3[nH]c(=O)c(=O)[nH]c3c2)cc1	-5%	-13%
Fc1cc(Br)ccc1Nc1nc2ccccc2n2nnnc12	-25%	14%
O=C(CNC(=S)N(Cc1ccccc1)Cc1ccccc1F)NCCc1ccc(Cl)cc1	?	?
COc1ccc(C(CNC(=O)c2cccc(NS(=O)(=O)c3ccc(C)c(F)c3)c2)N(C)C)cc1 (stereo not given)	-14%	?
CCC(=O)N1c2ccc(S(=O)(=O)N3CCOCC3)cc2CC1C (stereo not given)	-8%[7.34 µM]	-5%[7.34 µM]
CCc1ccc(NC(=O)Cn2c(=O)nc(-c3ccccc3F)c3cc(Cl)ccc32)cc1	-20%	-9%
COc1ccc(CNC(=O)CCCCCn2c(=O)[nH]c3ccccc3c2=O)cc1	-8%	-17%
Nc1ccccc1SC1CC(=O)N(Cc2ccccc2)C1=O (stereo not given)	4%	-7%

# Five entries out of the list, sorted by length of the SMILES, descending.
compound	Vaccinia Venus	Vaccinia mCherry
CC(C)c1ccc(N(CC(=O)O)S(=O)(=O)c2ccc3[nH]c(=O)c(=O)[nH]c3c2)cc1	-5%	-13%
O=C(CNC(=S)N(Cc1ccccc1)Cc1ccccc1F)NCCc1ccc(Cl)cc1	?	?
COc1ccc(CNC(=O)CCCCCn2c(=O)[nH]c3ccccc3c2=O)cc1	-8%	-17%
CCC(=O)N1c2ccc(S(=O)(=O)N3CCOCC3)cc2CC1C (stereo not given)	-8%[7.34 µM]	-5%[7.34 µM]
Nc1ccccc1SC1CC(=O)N(Cc2ccccc2)C1=O (stereo not given)	4%	-7%

# (listing goes on)
compound	Vaccinia Venus	Vaccinia mCherry
CC(=O)N1C[C@H]2CON(C)[C@H]2C[C@H]1c1cccc(-c2cc(Cl)cc(Cl)c2)c1	-23%	-4%
Cc1ccc(/C=N/N2C(=S)SC(C)(C)C2N(O)C(=O)Nc2ccc([N+](=O)[O-])cc2)cc1 (stereo not given)	?	?
Cc1ccccc1NC(=O)COC(=O)c1n[nH]c(=O)c2ccccc12	-12%	-8%
Cc1ccc(/C=C/c2nc3ccccc3[nH]2)cc1	-22%	-27%
CCN(CC)c1ncnc2c1ncn2[C@H]1CN(Cc2ccc(F)cc2)C[C@@H](CO)O1	7%	-16%
CNCCCCOc1ccccc1-c1ccccc1	?	-22%
CC(C)Cn1c(-c2ccncc2)n[nH]c1=S	6%	14%
CCCn1c(N)c(Sc2ccc(C)cc2)c(=O)n(CCC)c1=O	-8%	-1%

# Shown with values under each structure: part of the list above.
# Screens in order: Vaccinia Venus, Vaccinia mCherry
Cc1ccc(-c2nn(-c3ccccc3)cc2C(=O)NCCCN2CCOCC2)cc1
  -24%, -18%
Clc1ccc(-n2cccc2CN2CCOc3ccc(CN4CCOCC4)cc3C2)nc1
  -14%, i

# (further entries)
compound	Vaccinia Venus	Vaccinia mCherry
CCOc1ccc(S(=O)(=O)Oc2ccc3ccccc3c2)cc1	?	-9%
CCc1ccc(CNC(=O)C(=O)NCCc2ccc(OC)c(OC)c2)cc1	-17%	-25%
O=[n+]1c2c(n([O-])c3cc(F)c(F)cc31)CCCC2	-2%	-9%
Cc1sc2ncn(CC(=O)NCC3COc4ccccc4O3)c(=O)c2c1S(=O)(=O)N1CCCCC1 (stereo not given)	-17%	-15%
COc1ccc(CCNC(=O)C2CCN(S(=O)(=O)N3CC(C)CC(C)C3)CC2)cc1OC (stereo not given)	-21%	0%
O=C(Nc1ccc2c(c1)OCCO2)C(c1ccccc1)n1c(=O)c(-c2ccco2)nc2ccccc21 (stereo not given)	-11%	-23%
Cc1ccnc(NC(=O)c2ccc(S(=O)(=O)c3ccccc3)cc2)c1	-16%	i
CCN(CC)c1nc2c(s1)C(=O)NCCC2	-5%	-11%

# (further entries)
compound	Vaccinia Venus	Vaccinia mCherry
CC1(C)CC(=O)C(C=NC2CCCCC2)=C(O)C1	9%	.
O=c1cc(-c2c(O)c3ccccc3n(Cc3ccccc3)c2=O)[nH][nH]1	-4%	-10%
CCN1CCCC1CNC(=O)c1cnn(-c2nccc(-c3ccc(C)o3)n2)c1C1CC1 (stereo not given)	-7%	-16%
CCOC(=O)C1=C(COC(=O)CSc2ccc(Br)cc2)NC(=O)NC1C (stereo not given)	-2%	-11%
CCOc1ccc(NC(=O)CN(C)CC(=O)Nc2ccccc2C#N)cc1OCC	-8%	.
COc1ccc(OC)c(NC(=O)[C@@]2(CC(=O)O)CC(/C=C/c3ccccc3)=NO2)c1	-9%	-18%
S=c1[nH]c2ccc(Cc3ccc4[nH]c(=S)[nH]c4c3)cc2[nH]1	-4%	0%
CN(C(=O)COC(=O)Cc1c(F)cccc1Cl)c1c(N)n(Cc2ccccc2)c(=O)[nH]c1=O	2%	-11%

# (continued)
SMILES	Vaccinia Venus	Vaccinia mCherry
C=CCOc1cccc(C2/C(=C(\O)c3ccc(F)cc3)C(=O)C(=O)N2CCN(C)C)c1 (stereo not given)	-17%	-26%
COc1ccc(C2CC(=O)N(C)c3ccccc3S2)cc1OC (stereo not given)	-23%	-3%
CCC(C(=O)NCc1ccco1)n1nc(C)n2c(cc3occc32)c1=O (stereo not given)	-4%	i
CCC(c1nnnn1CCc1ccccc1)N(Cc1ccco1)Cc1cc2cccc(C)c2[nH]c1=O (stereo not given)	-16%	.
CCOC(=O)C1=CCC(c2cccc(C)c2)N(S(=O)(=O)c2ccc(C)cc2)C1 (stereo not given)	-3%	i
O=[N+]([O-])c1ccc(Cn2cc(-c3cccc(C(F)(F)F)c3)nn2)cc1	?	-20%&-9%
CNC(=S)N1CCc2cc(OC)c(OC)cc2C1COc1ccc(OC)cc1 (stereo not given)	-1%	i
CC1CCCN(S(=O)(=O)c2ccc(NC(=O)CCN3C(=O)c4ccccc4C3=O)cc2)C1 (stereo not given)	-23%	.
O=C(Oc1ccc[nH]c1=O)c1cc([N+](=O)[O-])cc([N+](=O)[O-])c1	-8%	2%
CCCNC(=O)c1ccc(SCC(=O)N(CC)CC)c([N+](=O)[O-])c1	-9%	-21%
CC(=O)NC1=NN(C(C)=O)C(C)(c2cccc([N+](=O)[O-])c2)S1 (stereo not given)	-4%	-7%
CC(=O)Nc1ccc(S(=O)(=O)NNC(=O)COc2cccc3ccccc23)cc1	0%	-15%
COc1ccc(CNc2nc(-c3ccccc3)nn2S(=O)(=O)c2ccccc2)cc1	-4%	-13%
COC(=O)c1ccc(/C=C/C(=O)OCC(=O)c2ccc[nH]2)cc1	0%	-2%
O=C(NCC1CCCCN1)c1cc(OCC(F)(F)F)ccc1OCC(F)(F)F (stereo not given)	10µM*!	35µM*!
OCCCNC(=S)Nc1ccc(Nc2ccccc2)cc1	1%	0%
O=C(Cn1c(=O)n(Cc2ccc3c(c2)OCO3)c(=O)c2ccc(C(=O)NC3CCCCC3)cc21)Nc1ccccc1F	-17%	-6%
COc1ccc(C)cc1N(CC(=O)N1CCCC1)S(=O)(=O)c1ccccc1	15%	-33%
CCN(CC)CCN(C(=O)CCS(=O)(=O)c1ccccc1)c1nc2c(C)cc(C)cc2s1	?	14µM*
O=C(NCc1cccc(F)c1)c1ccccc1NC(=O)c1nsc2ccccc12	-16%	i

# (cont.)
SMILES	Vaccinia Venus	Vaccinia mCherry
O=C(C1CC1(c1ccccc1)c1ccccc1)N1CCOCC1 (stereo not given)	-9%	-14%
CCn1c(=S)sc2c(=O)n(CC(=O)NCCCc3ccccc3)c(C)nc21	0%	-5%
Cc1cccc(CNc2ccnc(-c3ccccc3CN(C)C)n2)c1	8%	-9%
C=CCOc1ccc(Br)cc1CNCC	-14%	i
COc1ccc(/C=N/Nc2nc(-c3cccnc3)nc3ccccc23)c(OC)c1	-6%	i
OC1CCN(Cc2ccc(OCc3ccccc3)cc2)CC1	-8%	i
CCOc1ccc(/C(O)=C/C(=O)C(=O)Nc2ccc(S(=O)(=O)NC(C)=O)cc2)cc1	-1%	23%
COc1cccc(-n2c(=O)c3sc4ccccc4c3n(CC(=O)Nc3cccc(Cl)c3)c2=O)c1	-11%	-6%
Fc1ccc(-c2cc(-c3ccccc3)c3c(n2)-c2cc(F)ccc2OC3)cc1	1%	-9%
Cc1cccc(N(CC(=O)NC2CCCC2)C(=O)CCC(=O)Nc2ccccn2)c1	-1%	11%
O=C(NCCCn1ccnc1)C1CCCN(S(=O)(=O)c2cc(Cl)ccc2Cl)C1 (stereo not given)	-7%	-21%
COc1cccc(-c2c(C(=O)N/N=C/c3cccs3)nnn2-c2nonc2N)c1	-4%[7.34 µM]	-14%[7.34 µM]
CCOC(=O)c1cc(CC)sc1NC(=O)c1cccc(N2C(=O)CCC2=O)c1	-3%	-10%
O=c1c2[nH]c3ccc(Br)cc3c2ncn1Cc1ccncc1	-9%	-24%
O=C(CCl)Nc1ccc(Sc2ccc(NC(=O)CCl)cc2)cc1	-29%	?
CCOc1ccc(C2C(C(=O)c3cccs3)=C(O)C(=O)N2Cc2cccnc2)cc1 (stereo not given)	-12%	i
COc1cc(CNc2ncnc3c2ncn3[C@H]2CN(Cc3ccccc3)C[C@@H](COC(C)=O)O2)cc(OC)c1OC	6%	15%
CCN(c1ccccc1)S(=O)(=O)c1cc2c(cc1C)N(C)CCO2	2%	-10%
CCCCn1c(N)c(N(CCOC)C(=O)c2ccco2)c(=O)[nH]c1=O	-8%	-9%
O=C(O)C(Cc1ccccc1)N1C(=O)/C(=C/C=C/c2ccco2)SC1=S (stereo not given)	54%[activator]	8%

# Next entries follow:
SMILES	Vaccinia Venus	Vaccinia mCherry
O=C(Nc1nnc(CC(=O)N2CCOCC2)s1)c1cccs1	-4%	-11%
C[C@@H]1CN(Cc2cn(C)nc2-c2cccc(Cl)c2)C[C@H](C)O1	0%	-6%
O=C1NC[C@@H](CCCCN2C[C@H](Cc3ccccc3)N(CC3CCCCC3)C(=O)C2=O)N(CCc2ccccc2)C1=O	-3%	24%
COC(=O)CN1C(=S)N(Cc2ccccc2)C(=O)C1CC(=O)Nc1ccc(OC)cc1 (stereo not given)	-10%	-16%
CC(C)(C)OC(=O)NCCCCCc1nnc(SCc2ccc(F)cc2)o1	-4%[7.34 µM]	-6%[7.34 µM]
N/C(Cc1ccc(Cl)cc1)=N\OC(=O)CCc1ccccc1	-19%	i
Nc1n[nH]c(CCCO)n1	-4%	-15%
CCC(C)(C(=O)NC1CCCC1)N(C(=O)c1cnccn1)c1ccccc1 (stereo not given)	-1%	7%
Oc1ccc2ccccc2c1CNc1ccccc1	-8%	?
CCc1nc(SCC(=O)N2c3ccccc3CC2C)c2c(C)c(C)sc2n1 (stereo not given)	33%[activator]	?
Cc1cc(O)cc(O)c1C(=O)O	-4%	-6%
CCC(CO)Oc1cc(NCc2ccccc2F)c2ncn(C(C)C)c2c1 (stereo not given)	-13%	-28%
CN(C)CCNC(=O)Cn1nc(C(F)F)cc1C1CC1	-9%	-13%
CC(C)C(=O)c1cn(CC(=O)NCc2ccc3c(c2)OCO3)c2ccccc12	-28%	-10%
Cc1ccc(N(CC(=O)Nc2cccc(C)c2)S(=O)(=O)c2cccc3nonc23)cc1	-14%	-26%
COc1ccc(OC)c(NC(=O)C2(C)CCN2C(=O)Cc2ccccc2)c1 (stereo not given)	-3%	i
CC(Cc1ccc(O)c(O)c1)C(C)Cc1ccc(O)c(O)c1 (stereo not given)	-22%	-12%
O=C(Nc1ccc(F)c(Cl)c1)c1ccc2sc([C@@H]3O[C@H](CO)[C@H](O)[C@H](O)[C@H]3O)nc2c1	4%	20%
COc1cc(C)ccc1OCCCOc1ccccc1Cl	-17%	.
CC(Oc1ccccc1)C(=O)OCc1cc(=O)n2nc(C(C)C)sc2n1 (stereo not given)	-5%	-3%
CCCCN1C2=NC(c3ccccc3)CN2c2ccccc21 (stereo not given)	-9%[7.34 µM]	-11%[7.34 µM]
COc1ccc(CCNC(=O)C(=O)c2c[nH]c3ccccc23)cc1	-19%	-27%
O=C(NC1CCCCC1)C12CC3CC(C1)CC(n1cncn1)(C3)C2	-5%	.
